rRNA inh HTS – inhibitors of bacterial rRNA selective over humanized ribosomes; hit rate 1.6% among 350,000; AID 720706; GFP signal change (wild-type ribosome), % (no concentration beside the values); E. coli WT GFP vs humanized-ribosome RFP mutants, fluorescence, 24 h; active compounds read low; DMSO median 0, no signal -100;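 active = significant combined selectivity score with lowered wild-type GFP, culture density cut under 30%, mutant RFP and density less affected; inactive = any of these conditions unmet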; also: one replicate is shown; some compounds called inactive have numbers as strong as hits
MLL AF4-AF9 inh – MLL-AF4/AF9 protein interaction inhibition; P42568; AlphaScreen, biotin-AF4 peptide binding to FLAG-AF9; inhibition, % at 10 µM; hit rate 0.47% among 350,000; AID 651704;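 active = every replicate reaching a set inhibition limit, whatever the replicate mean, cut at about 25% in these data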;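 also: 0% = plate neutral control median and 100% = total signal loss; the record names both 10 and 1 µM as test concentration; the first replicate is given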
Target sequence (P42568 whole entry, looked up): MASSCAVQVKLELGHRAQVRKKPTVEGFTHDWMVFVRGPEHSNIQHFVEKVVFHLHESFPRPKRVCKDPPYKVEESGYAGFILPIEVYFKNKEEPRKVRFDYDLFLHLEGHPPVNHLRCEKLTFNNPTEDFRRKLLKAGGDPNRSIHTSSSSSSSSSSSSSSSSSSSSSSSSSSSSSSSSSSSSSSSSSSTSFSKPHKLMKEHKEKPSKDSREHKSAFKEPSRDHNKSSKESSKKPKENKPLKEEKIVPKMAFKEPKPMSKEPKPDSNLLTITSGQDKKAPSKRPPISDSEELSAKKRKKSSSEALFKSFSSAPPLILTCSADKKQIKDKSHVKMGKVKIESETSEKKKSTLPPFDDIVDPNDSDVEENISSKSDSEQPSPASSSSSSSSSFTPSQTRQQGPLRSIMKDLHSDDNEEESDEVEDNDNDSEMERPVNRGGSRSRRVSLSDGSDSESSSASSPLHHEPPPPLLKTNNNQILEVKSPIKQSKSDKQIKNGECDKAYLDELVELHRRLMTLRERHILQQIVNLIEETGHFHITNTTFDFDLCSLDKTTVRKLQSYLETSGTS
FGF22 binding – binders of recombinant human FGF22 by thermal shift. Q9HCT0. SYPRO orange fluorescence; percent of sucrose octasulfate shift, DMSO zero. calls only at 9.99 µM. hit rate 1.5% among 340,000. AID 651658;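 active = melting point raised past a set limit in the mean and every replicate; three in four hits are not shown here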
Target sequence (Q9HCT0 whole entry, looked up): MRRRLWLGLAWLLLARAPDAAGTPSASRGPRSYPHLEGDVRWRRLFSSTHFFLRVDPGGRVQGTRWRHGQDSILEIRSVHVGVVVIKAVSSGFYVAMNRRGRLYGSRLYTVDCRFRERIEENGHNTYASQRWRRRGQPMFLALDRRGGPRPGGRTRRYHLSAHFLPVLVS
rRNA inh HTS OD600 – recorded beside rRNA inh HTS, whose call it bears; OD600 change, %; measured here: OD600 growth;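 optical density of the mix in the first replicate; 0 = DMSO median and -100 = no signal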
rRNA inh HTS RFP – recorded beside rRNA inh HTS, whose call it bears; RFP signal change, %; measured here: RFP humanized mutant strains;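 first replicate; 0 = DMSO median and -100 = no signal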
The depositor's hits bear a star; & = joins results of further samples. A portion of the library (hit frequency here may not be typical).

Screening Cc1noc(C)c1S(=O)(=O)Nc1ccc2c(c1)CC(=O)N([C@H](C)CO)C[C@H](C)[C@@H](CN(C)C(=O)NC1CCCCC1)O2 returned rRNA inh HTS 1, MLL AF4-AF9 inh -0.9, FGF22 binding inactive, rRNA inh HTS OD600 1 and rRNA inh HTS RFP -1.3.
Screening CCC(=O)Nc1ccc2c(c1)C(=O)N(C)C[C@H](OC)[C@@H](C)CN(CCC(F)(F)F)[C@@H](C)CO2 returned rRNA inh HTS 0, MLL AF4-AF9 inh -1.1, FGF22 binding inactive, rRNA inh HTS OD600 -2 and rRNA inh HTS RFP -0.2.
For CO[C@@H]1CN(C)C(=O)c2ccc(NC(=O)c3ccccc3)cc2OC[C@@H](C)NC[C@@H]1C the results were rRNA inh HTS 5, MLL AF4-AF9 inh -2.3, FGF22 binding inactive, rRNA inh HTS OD600 7 and rRNA inh HTS RFP -4.2.
`CCCNC(=O)N(C)C[C@@H]1Oc2cc(-c3ccccc3F)ccc2S(=O)(=O)N([C@H](C)CO)C[C@H]1C` gave rRNA inh HTS -10, MLL AF4-AF9 inh 0.5, FGF22 binding inactive, rRNA inh HTS OD600 -8 and rRNA inh HTS RFP -3.1.
Screening O=C1C=CN(C2OC(CO)C(O)C2O)C(=O)C1 (configuration not stated) returned rRNA inh HTS 7, MLL AF4-AF9 inh -9.0, FGF22 binding inactive, rRNA inh HTS OD600 9 and rRNA inh HTS RFP -2.4.
COc1cccc(C(=O)Nc2ccc3c(c2)OC[C@H](C)N(C(=O)C2CCCC2)C[C@@H](C)[C@H](OC)CN(C)C3=O)c1 was read as rRNA inh HTS 1, MLL AF4-AF9 inh -9.8, FGF22 binding inactive, rRNA inh HTS OD600 13 and rRNA inh HTS RFP 2.0.
O=C(Nc1ccc(Cl)cc1)C1Cc2c(-c3ccccc3Oc3ccccc3)ccnc2O1 (configuration not stated) was read as rRNA inh HTS 8, MLL AF4-AF9 inh 0.0, FGF22 binding inactive, rRNA inh HTS OD600 18 and rRNA inh HTS RFP 1.1.
CCS(=O)(=O)Nc1ccc2c(c1)C(=O)N(C)[C@@H]1CC[C@H](CC(=O)NC3CCCCC3)O[C@H]1CO2 was read as rRNA inh HTS 3, MLL AF4-AF9 inh -1.6, FGF22 binding inactive, rRNA inh HTS OD600 12 and rRNA inh HTS RFP -0.2.
Screening COC(=O)c1ccc(CNC(=O)c2ccc(OC)c(S(=O)(=O)NC3CC3)c2)cc1 returned rRNA inh HTS -1, MLL AF4-AF9 inh -1.3, FGF22 binding inactive, rRNA inh HTS OD600 8 and rRNA inh HTS RFP 3.2.
O=C(C[C@H]1C[C@@H]2c3cc(NC(=O)C4CCC4)ccc3O[C@@H]2[C@@H](CO)O1)NCc1ccccc1 was read as rRNA inh HTS -4, MLL AF4-AF9 inh -2.2, FGF22 binding inactive, rRNA inh HTS OD600 -4 and rRNA inh HTS RFP -1.3.
`O=C(Nc1ccccc1N1CCCC1)c1cc(=O)[nH]c2ccccc12` gave rRNA inh HTS 2, MLL AF4-AF9 inh -21, FGF22 binding inactive, rRNA inh HTS OD600 3 and rRNA inh HTS RFP -3.2.
`O=C(C[C@@H]1CC[C@H]2[C@@H](COC[C@@H](O)CN2CC2CCCCC2)O1)NCc1ccc(Cl)cc1` gave rRNA inh HTS -59, MLL AF4-AF9 inh 0.6, FGF22 binding inactive, rRNA inh HTS OD600 -77 and rRNA inh HTS RFP -20.
`O=C(C[C@@H]1C=C[C@H](NC(=O)C2CCOCC2)[C@@H](CO)O1)NCC1CC1` gave rRNA inh HTS 0, MLL AF4-AF9 inh -1.3, FGF22 binding inactive, rRNA inh HTS OD600 0 and rRNA inh HTS RFP -2.9.
CC1CN(c2cc(=O)n(-c3ccc(Cl)cc3)c(=O)[nH]2)CC(C)O1 (configuration not stated) was read as rRNA inh HTS 0, MLL AF4-AF9 inh -0.9, FGF22 binding inactive, rRNA inh HTS OD600 4 and rRNA inh HTS RFP 2.3.
`Cc1cccc(CN(C)C)c1CC(O)(c1ccccc1)c1ccccc1` gave rRNA inh HTS 4, MLL AF4-AF9 inh -5.0, FGF22 binding inactive, rRNA inh HTS OD600 5 and rRNA inh HTS RFP 1.8.
Screening COc1cccc(C(=O)Nc2ccc3c(c2)C(=O)N(C)[C@H]2CC[C@@H](CC(=O)NCC4CC4)O[C@H]2CO3)c1 returned rRNA inh HTS -7, MLL AF4-AF9 inh -2.9, FGF22 binding inactive, rRNA inh HTS OD600 -9 and rRNA inh HTS RFP 0.5.
For COc1ccc(C(c2nnnn2-c2ccc(OC)cc2)N2CCN(C/C=C/c3ccccc3)CC2)cc1 (configuration not stated) the results were rRNA inh HTS -32, MLL AF4-AF9 inh 15, FGF22 binding inactive, rRNA inh HTS OD600 -53 and rRNA inh HTS RFP 42.
Screening Cc1ccc(C2(c3ccccc3)NC(=O)N(CC(=O)NC3CCCCC3)C2=O)cc1C (configuration not stated) returned rRNA inh HTS -16, MLL AF4-AF9 inh 4.0, FGF22 binding inactive, rRNA inh HTS OD600 -40 and rRNA inh HTS RFP -1.0.
For O=C(CC(NC(=O)OCc1ccccc1)C(=O)OCc1ccccc1)OCc1ccccc1 (configuration not stated) the results were rRNA inh HTS 11, MLL AF4-AF9 inh -9.5, FGF22 binding inactive, rRNA inh HTS OD600 5 and rRNA inh HTS RFP 0.1.
CCCc1cn(CC[C@@H]2CC[C@@H](NC(=O)C3CCOCC3)[C@H](CO)O2)nn1 was read as rRNA inh HTS 2, MLL AF4-AF9 inh 0.8, FGF22 binding inactive, rRNA inh HTS OD600 7 and rRNA inh HTS RFP 0.4.
`COCC(=O)Nc1ccc2c(c1)C(=O)N(C)[C@H]1CC[C@@H](CC(=O)NCCc3ccncc3)O[C@H]1CO2` gave rRNA inh HTS 5, MLL AF4-AF9 inh -1.1, FGF22 binding inactive, rRNA inh HTS OD600 6 and rRNA inh HTS RFP -3.0.
COCC#Cc1cnc2c(c1)C(=O)N([C@@H](C)CO)C[C@@H](C)[C@@H](CN(C)C(=O)C1CCC1)O2 was read as rRNA inh HTS 5, MLL AF4-AF9 inh -3.8, FGF22 binding inactive, rRNA inh HTS OD600 18 and rRNA inh HTS RFP -1.9.
For CO[C@H]1CN(C)C(=O)c2cc(NC(=O)C3CC3)ccc2OC[C@H](C)N(Cc2cccnc2)C[C@@H]1C the results were rRNA inh HTS -1, MLL AF4-AF9 inh -0.2, FGF22 binding inactive, rRNA inh HTS OD600 7 and rRNA inh HTS RFP -1.4.
Screening COc1ccc(S(=O)(=O)Nc2ccc3c(c2)C(=O)N([C@@H](C)CO)C[C@@H](C)[C@H](CN(C)Cc2ccc(Oc4ccccc4)cc2)O3)cc1 returned rRNA inh HTS -3, MLL AF4-AF9 inh 0.8, FGF22 binding inactive, rRNA inh HTS OD600 -7 and rRNA inh HTS RFP 3.2.
Screening COc1ccc(NC(=O)Nc2ccc3c(c2)CC(=O)N([C@@H](C)CO)C[C@@H](C)[C@@H](CN(C)C(=O)NC2CCCCC2)O3)cc1 returned rRNA inh HTS 4, MLL AF4-AF9 inh -0.1, FGF22 binding inactive, rRNA inh HTS OD600 2 and rRNA inh HTS RFP -1.1.
Screening C[C@@H]1CN([C@@H](C)CO)C(=O)c2cccc(NC(=O)Nc3ccc(F)cc3)c2O[C@@H]1CN(C)C(=O)Nc1ccc(C(F)(F)F)cc1 returned rRNA inh HTS -2, MLL AF4-AF9 inh -11, FGF22 binding inactive, rRNA inh HTS OD600 11 and rRNA inh HTS RFP -2.8.
For CCCc1nc2c(Cl)cc(C(F)(F)F)cn2c1Cc1ccc(OC)cc1C the results were rRNA inh HTS -5, MLL AF4-AF9 inh 5.7, FGF22 binding inactive, rRNA inh HTS OD600 -4 and rRNA inh HTS RFP 0.7.
`CO[C@@H]1CN(C)C(=O)c2cc(NC(=O)C3CCC3)ccc2OC[C@@H](C)N(CC2CCCCC2)C[C@H]1C` gave rRNA inh HTS 2, MLL AF4-AF9 inh 3.6, FGF22 binding inactive, rRNA inh HTS OD600 -10 and rRNA inh HTS RFP 6.5.
Screening C[C@@H](NC(=O)[C@H]1[C@H](CO)[C@H]2Cn3c(ccc(-c4cccnc4)c3=O)[C@H]2N1C)c1ccccc1 returned rRNA inh HTS 3, MLL AF4-AF9 inh 1.5, FGF22 binding inactive, rRNA inh HTS OD600 10 and rRNA inh HTS RFP -0.4.
Screening C[C@@H]1CN([C@H](C)CO)C(=O)Cc2cc(NC(=O)CCC(F)(F)F)ccc2O[C@@H]1CN(C)S(=O)(=O)c1cccs1 returned rRNA inh HTS -3, MLL AF4-AF9 inh -2.1, FGF22 binding inactive, rRNA inh HTS OD600 -4 and rRNA inh HTS RFP 0.3.

Ordered by molecular weight (low to high): some entries from above.
For CCCc1nc2c(Cl)cc(C(F)(F)F)cn2c1Cc1ccc(OC)cc1C the results were rRNA inh HTS -5, MLL AF4-AF9 inh 5.7, FGF22 binding inactive, rRNA inh HTS OD600 -4 and rRNA inh HTS RFP 0.7.
COCC#Cc1cnc2c(c1)C(=O)N([C@@H](C)CO)C[C@@H](C)[C@@H](CN(C)C(=O)C1CCC1)O2 was read as rRNA inh HTS 5, MLL AF4-AF9 inh -3.8, FGF22 binding inactive, rRNA inh HTS OD600 18 and rRNA inh HTS RFP -1.9.
Screening COc1ccc(NC(=O)Nc2ccc3c(c2)CC(=O)N([C@@H](C)CO)C[C@@H](C)[C@@H](CN(C)C(=O)NC2CCCCC2)O3)cc1 returned rRNA inh HTS 4, MLL AF4-AF9 inh -0.1, FGF22 binding inactive, rRNA inh HTS OD600 2 and rRNA inh HTS RFP -1.1.
Screening COc1ccc(S(=O)(=O)Nc2ccc3c(c2)C(=O)N([C@@H](C)CO)C[C@@H](C)[C@H](CN(C)Cc2ccc(Oc4ccccc4)cc2)O3)cc1 returned rRNA inh HTS -3, MLL AF4-AF9 inh 0.8, FGF22 binding inactive, rRNA inh HTS OD600 -7 and rRNA inh HTS RFP 3.2.

Other compounds
CCC(=O)N(C)C[C@@H]1Oc2cc(-c3ccccc3C)ccc2S(=O)(=O)N([C@@H](C)CO)C[C@H]1C was read as rRNA inh HTS -4, MLL AF4-AF9 inh -1.1, FGF22 binding inactive, rRNA inh HTS OD600 -16 and rRNA inh HTS RFP 3.0.
Screening COc1cccc(NC(=O)N(C)C[C@H]2OCc3cn(nn3)CCCC(=O)N([C@H](C)CO)C[C@@H]2C)c1 returned rRNA inh HTS 0&4, MLL AF4-AF9 inh 3.4&-2.9, FGF22 binding inactive, rRNA inh HTS OD600 4&10 and rRNA inh HTS RFP -2.6&1.6.
For C[C@@H]1CN([C@H](C)CO)C(=O)c2cc(C3=CCCC3)cnc2O[C@H]1CN(C)Cc1ccccn1 the results were rRNA inh HTS -2, MLL AF4-AF9 inh -6.2, FGF22 binding inactive, rRNA inh HTS OD600 9 and rRNA inh HTS RFP -2.9.
Screening CCc1cnc(N2[C@H](C#N)[C@H](c3ccc(C4=CCCC4)cc3)[C@@H]2CO)s1 returned rRNA inh HTS 0, MLL AF4-AF9 inh 3.4, FGF22 binding inactive, rRNA inh HTS OD600 1 and rRNA inh HTS RFP -1.3.
Screening O=C(Cc1ccncc1)NCC[C@@H]1CC[C@@H](NC(=O)C2CCOCC2)[C@@H](CO)O1 returned rRNA inh HTS 2, MLL AF4-AF9 inh -0.7, FGF22 binding inactive, rRNA inh HTS OD600 -3 and rRNA inh HTS RFP 0.4.
For Nc1c(N(Cc2ccccc2)C(=O)COc2ccc([N+](=O)[O-])cc2)c(=O)[nH]c(=O)n1Cc1ccccc1 the results were rRNA inh HTS 8, MLL AF4-AF9 inh -3.5, FGF22 binding inactive, rRNA inh HTS OD600 16 and rRNA inh HTS RFP -0.3.
CC(C)NC(=O)Nc1ccc2c(c1)C(=O)N([C@H](C)CO)C[C@H](C)[C@H](CN(C)C(=O)c1ccccc1)OCCCC[C@H](C)O2 was read as rRNA inh HTS -2, MLL AF4-AF9 inh -2.4, FGF22 binding inactive, rRNA inh HTS OD600 -3 and rRNA inh HTS RFP 0.3.
Screening O=C(C[C@H]1CC[C@@H]2[C@H](COC[C@@H](O)CN2Cc2cc(F)ccc2F)O1)N[C@H]1CCN(Cc2ccccc2)C1 returned rRNA inh HTS 3, MLL AF4-AF9 inh 7.3, FGF22 binding inactive, rRNA inh HTS OD600 3 and rRNA inh HTS RFP -2.9.
For C[C@H](CO)N1C[C@H](C)[C@H](CN(C)C(=O)Nc2ccc3c(c2)OCO3)Oc2ccc(NC(=O)C3CCCCC3)cc2CC1=O the results were rRNA inh HTS -1, MLL AF4-AF9 inh -0.2, FGF22 binding inactive, rRNA inh HTS OD600 7 and rRNA inh HTS RFP -0.7.
For Cc1cc(C(=O)Nc2cccc3c2O[C@@H](CN(C)S(=O)(=O)c2cn(C)cn2)[C@@H](C)CN([C@@H](C)CO)C3=O)n(C)n1 the results were rRNA inh HTS -2, MLL AF4-AF9 inh -3.6, FGF22 binding inactive, rRNA inh HTS OD600 6 and rRNA inh HTS RFP 2.4.
`c1ccc(CC(Nc2cccnc2)c2ccccc2)cc1` (configuration not stated) gave rRNA inh HTS -9, MLL AF4-AF9 inh 13, FGF22 binding inactive, rRNA inh HTS OD600 -23 and rRNA inh HTS RFP -11.

Source: PubChem BioAssay (Broad Institute)
